Source: PubChem BioAssay
Biofilm kill mix: mixture kills Candida albicans biofilm cells; C. albicans biofilm persisters + clotrimazole, fluorescence viability; primary screen in compound mixtures of four per well; inhibition, % at 7.6 µM; actives 0.02% (n = 120,000);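 active = inhibition above 30.3% in the primary screen of four-compound pools, then above 30% when the compound was retested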;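 note: compounds exposed to preformed 24 h biofilms for 48 h; the number belongs to the whole pool; some results filed as inactive read as strong as hits; inactives centre near 12; 0% = biofilm with clotrimazole alone and 100% = kill control; retested singly at about 60 µM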
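Probe or stimulus – Clotrimazole 50 µg/mL co-treatment · System – C. albicans biofilms · Schedule – 24 h biofilm formation, then 48 h compound exposure, 37 °C · Evaluation – percent inhibition of biofilm viability · Technique – 2-h Alamar Blue fluorescence, 535/590 nm excitation/emission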
The depositor's hits bear a star. An excerpt; rates above refer to the full screens.

Start of the listing, in advance (7 entries):
SMILES	Biofilm kill mix
COc1ccccc1Oc1coc2c(CN3CCOCC3)c(O)ccc2c1=O	25.8
CCCCN(CCCC)c1cn[nH]c(=O)c1Cl	2.3
CCOc1ccccc1C(=O)NN1C(=O)CCC1=O	10.9
CC(=O)c1cccc(NC(=O)Cn2nc(-c3ccc(Cl)cc3)ccc2=O)c1	16.8
O=S(=O)(N1CCCCC1)N1CCN(c2cc(Cl)ccc2Cl)CC1	9.4
Cc1ccccc1-n1c(N)c(C(=O)Nc2ccc(F)cc2)sc1=S	8.2
CC(=O)Nc1ccc2c(c1)nc1n2CCN(C(C)c2ccccc2)C1 (stereo not given)	2.5

All compounds of this part, repeating the preview:
SMILES	Biofilm kill mix
COc1ccccc1Oc1coc2c(CN3CCOCC3)c(O)ccc2c1=O	25.8
CCCCN(CCCC)c1cn[nH]c(=O)c1Cl	2.3
CCOc1ccccc1C(=O)NN1C(=O)CCC1=O	10.9
CC(=O)c1cccc(NC(=O)Cn2nc(-c3ccc(Cl)cc3)ccc2=O)c1	16.8
O=S(=O)(N1CCCCC1)N1CCN(c2cc(Cl)ccc2Cl)CC1	9.4
Cc1ccccc1-n1c(N)c(C(=O)Nc2ccc(F)cc2)sc1=S	8.2
CC(=O)Nc1ccc2c(c1)nc1n2CCN(C(C)c2ccccc2)C1 (stereo not given)	2.5
Cc1ccc(/C=C/C(=O)Nc2cccc(S(=O)(=O)N3CCOCC3)c2)o1	10.1
CCOC(=O)Cc1csc(NC(=O)CC(C)(C)CC(=O)O)n1	22.2
c1ccc(C2CCCN(Cc3nc(CC4CC4)no3)CC2)cc1 (stereo not given)	8.2
CCN(CC)S(=O)(=O)c1ccc(N2CCOCC2)c(NC(=O)C(C)(C)C)c1	18.3
COc1cc(/C=N\NC(=O)OC(C)(C)C)ccc1OC(=O)c1ccco1	8.9
CC1(C)C2C(Cl)(Cl)C2(C)c2ccccc2N1C=O (stereo not given)	37.0
Cc1cccc(C)c1OCC(=O)NCC1CCCO1 (stereo not given)	-0.7
CN1Cc2sc(NC(=S)NC(=O)c3ccccc3)c(C#N)c2CC1(C)C	25.3
COc1cccc(-c2cc(-c3cccnc3)c(C#N)c(N)n2)c1	20.0
Cc1ccc(CNC(=O)Cn2cnc3cc([N+](=O)[O-])ccc3c2=O)cc1	19.3
Cc1noc(C)c1COC(=O)c1ccc(S(=O)(=O)N2CCCCC2)cc1	2.1
O=C(CCCn1c(SCc2cccc(F)c2)nc2ccccc2c1=O)NCC1CCCO1 (stereo not given)	11.0
Cc1ccccc1NC(=S)N(Cc1ccccc1)Cc1cccs1	-9.4
Cc1ccc(-c2csc(NC(=O)C3=NN(C4CCS(=O)(=O)C4)C(=O)CC3)n2)cc1 (stereo not given)	24.2
Cc1c(NC(=S)N/C(=N/S(=O)(=O)c2ccccc2)c2ccccc2)c(=O)n(-c2ccccc2)n1C	20.9
CCOc1ccccc1NC(=O)CSc1nc2nc(-c3cccs3)cc(C(F)(F)F)c2c(=O)[nH]1	18.1
O=C(CSc1ccc(-c2cccs2)nn1)NCCc1ccccc1	17.6
O=C(CCn1nc(-c2ccc(Cl)cc2)c2ccccc2c1=O)Nc1cccnc1	17.7
NS(=O)(=O)c1cccc(NC(=O)Nc2ccccc2)c1	12.8
CCOC(=O)/C(=C\c1cccc(O)c1)c1nc2sc(C)c(C)c2c(=O)[nH]1	3.6
Cc1c(Br)c([N+](=O)[O-])nn1CC(=O)NCCc1ccc(Cl)cc1	9.6
CC(=O)N(C)c1nc(N)n(-c2ccccc2)n1	15.8
CC(C)(C)c1ccc(C(=O)NNc2ccc(F)cc2F)cc1	29.0
CCOC(=O)C(=NC(C)C)NNc1cc(Cl)ccc1Cl	14.3
CC(=O)n1cc([C@H]2C=C(C(=O)NCc3ccccc3)O[C@@H](OCCCCO)C2)c2ccccc21	15.6
CC(/C=N/NC(=O)c1ccc2nc(C)[nH]c2c1)=C\c1ccccc1	5.5
Cc1ccc(C(=O)NCC#N)cc1	1.2
N#Cc1c(NC(=S)NC(=O)c2ccccc2)sc2c1CCCC2	11.3
CCc1ccccc1NC(=O)Nc1cc(F)ccc1F	10.1
O=C(c1ccc2c(c1)OCCO2)N1CCN(c2ccc([N+](=O)[O-])cc2)CC1	-2.8
COc1ccc(C(=O)Oc2ccc(C(=S)N3CCOCC3)cc2)cc1	-8.7
Brc1ccc(-c2csc(-c3ccncc3)n2)cc1	-4.8
COc1cccc(/C=C/C(=O)OCC(=O)Nc2ccccc2Sc2ccccc2)c1	15.3
CC(C)CN(C(=O)COC(=O)c1nc(Cl)ccc1Cl)C1CCS(=O)(=O)C1 (stereo not given)	2.2
COc1ccc(C(=O)Nc2ccncc2)c(OC)c1	16.3
COc1ccc(CCC(=O)Nc2nc(-c3ccncc3)cs2)cc1	13.6
CC(=O)Nc1ccc(Nc2cc(N3CCOCC3)c3nonc3c2[N+](=O)[O-])cc1	-9.8
CC(C)OCCCNC(=O)C1CCN(S(=O)(=O)N2CCCC2)CC1	13.8
CC(C)C(O)C1CCN(Cc2nc(-c3cccs3)no2)CC1 (stereo not given)	3.6
CCCc1nc2oc3c(Cl)ncnc3c2c2c1CCCC2	6.0
CC1CCN(C(=O)c2cc(F)c(F)cc2Cl)CC1	12.9
COc1ccc(NC(=O)Cc2coc3ccc4ccccc4c23)cc1S(=O)(=O)N1CCOCC1	8.2
O=C(c1n[nH]c2ccccc12)N1CCOCC1	13.9
CCN(C(=S)NCc1ccccc1)c1cccc2ccccc12	12.1
Cc1ccc(NC(=S)NCCN2CCOCC2)cc1F	18.4
CCOC(=O)C1(CCOC)CCN(Cc2ccc(COC)o2)CC1	10.8
Cc1cc2cc(CN(Cc3ccco3)C(=S)NCC3CCCO3)c(=O)[nH]c2cc1C (stereo not given)	13.6
COc1ccc(C(=O)CSc2nnc(NC(=O)C3CC(=O)N(c4ccccc4C)C3)s2)cc1 (stereo not given)	10.0
Cc1cc(C)c2c(=O)[nH]cnc2n1	8.0
COc1ccc(C2Nc3ccccc3C(=O)N2NS(=O)(=O)c2ccc(C)cc2)cc1 (stereo not given)	1.6
CN(Cc1c(C(=O)N2CCc3ccccc3C2)nc2ccc(Cl)cn12)C(C1CC1)C1CC1	25.0
C=C1c2ccccc2NC(=S)N1Cc1ccc2c(c1)OCO2	6.7
OC1CCN(C(=S)Nc2ccc(Nc3ccccc3)cc2)CC1	2.5

(next part)
SMILES	Biofilm kill mix
COc1cc(/C=N/NC(=O)c2cccnc2)ccc1OCC(=O)N1CCOCC1	23.5
CC(=O)COc1ccc2c(-c3cccc([N+](=O)[O-])c3)cc(=O)oc2c1	-4.7
CCC1(CC)Cc2ccccc2-c2nc(NN)[nH]c(=O)c21	17.8
Cc1nc(-c2ccccc2)sc1C(=O)NN	8.6
CC(C)CSc1nc2c(=O)[nH][nH]c(=O)c2n1Cc1ccccc1	19.8
CCn1c(=O)c2cc(C(=O)Nc3cccc(C(C)=O)c3)sc2c2ccccc21	15.4
COC(=O)c1ccc2c(=O)n(CCCCCC(=O)NCCNC(C)=O)c(=O)[nH]c2c1	7.3
O=C(c1ccc([N+](=O)[O-])cc1)N1CCc2ccccc2C1	13.2
O=Cc1cn(CC(=O)Nc2ccc3c(c2)OCO3)c2ccccc12	17.6
C=CCC1(C#N)C(=S)NC(C)=C(C(=O)OCC)C1c1ccccc1 (stereo not given)	12.2
O=C(Cc1ccc([N+](=O)[O-])cc1)N1CCN=C1SCc1ccccc1	3.9
CC(c1ccccc1)N1C(=O)NC(NC(=O)c2cccnc2)(C(F)(F)F)C1=O (stereo not given)	8.2
CCOC(=O)c1cc(-c2cccc([N+](=O)[O-])c2)nc2[nH]c(=O)[nH]c(=O)c12	12.6
CCOC(=O)N1CCN(C(=O)CNC2CCCCCCC2)CC1	9.5
O=C(O)c1ccc(CSc2nnc(-c3ccncc3)n2-c2ccc(Cl)cc2)cc1	4.8

An excerpt of these results, field by field.
compound: CCC1(CC)Cc2ccccc2-c2nc(NN)[nH]c(=O)c21
  Biofilm kill mix: 17.8

compound: CC(C)CSc1nc2c(=O)[nH][nH]c(=O)c2n1Cc1ccccc1
  Biofilm kill mix: 19.8

compound: CC(=O)COc1ccc2c(-c3cccc([N+](=O)[O-])c3)cc(=O)oc2c1
  Biofilm kill mix: -4.7

compound: CCOC(=O)N1CCN(C(=O)CNC2CCCCCCC2)CC1
  Biofilm kill mix: 9.5

2 neighbouring records from above:
SMILES	Biofilm kill mix
CC(C)CSc1nc2c(=O)[nH][nH]c(=O)c2n1Cc1ccccc1	19.8
CCn1c(=O)c2cc(C(=O)Nc3cccc(C(C)=O)c3)sc2c2ccccc21	15.4

(next part)
SMILES	Biofilm kill mix
Cc1cc(=O)[nH]c(SCC(=O)Nc2ccc3c(c2)OCCO3)n1	-1.0
CCc1ccccc1Nc1nc2ccccc2n1CC	0.8
CCC(C)NS(=O)(=O)c1ccc(NC(=O)Cc2ccc(OC)cc2)cc1 (stereo not given)	15.1
CCOc1ccc(N2C(=O)/C(=C\c3ccccc3OC)S(=O)(=O)C2c2cccc([N+](=O)[O-])c2)cc1 (stereo not given)	11.4
C#CCNC(=O)C1=C[C@@H](c2ccc(C(F)(F)F)cc2)C[C@@H](OCCCCO)O1	21.0
O=C(O)CSc1ccc2nnc(-c3cccnc3)n2n1	14.1
C/C(N)=C(/C#N)C(=O)CSc1nc2ccccc2c(=O)n1-c1ccc(C)c(Cl)c1	19.1
CC(C)n1c(O)c(N=NC(=O)c2ccccc2NS(=O)(=O)c2cccs2)c2ccccc21	23.3
O=C(NN=C1CCCC1)c1cc(-c2ccccc2)n[nH]1	18.1
Cc1ccc(C(=O)/C=C/c2ccco2)c(O)c1	13.5
CNC(=S)Nc1ccc(C23CC4CC(CC(C4)C2)C3)cc1	10.0
CCN1CCN(c2nc(-c3cccs3)nc3ccccc23)CC1	11.0
Cc1ccccc1OCCNc1cc(N2CCNCC2)ccc1[N+](=O)[O-]	11.4
CCc1cc2c3c(c1)C(C)CC(C)(C)N3C(=O)C2=O (stereo not given)	20.2
COc1cccc(CNC(=O)CCC2CCCN(C(=O)C3=CC(=O)CC(C)(C)O3)C2)c1 (stereo not given)	11.6
CC(C)CN(CC(C)C)CC(O)COc1ccccc1Br (stereo not given)	11.1
Cn1c(C2=C(O)CN(Cc3ccccc3)C2=N)nc2ccccc21	24.7
O=S(=O)(c1ccc(Cl)c(NC(=S)Nc2ccccc2N2CCOCC2)c1)N1CCOCC1	16.6
COc1ccc(C[C@@H]2CN3C(=NC[C@@H]3C)N2C[C@H](C)NC(=O)c2ccc(C)c(Br)c2)cc1	20.2
CC1=NN=C(c2ccccc2)C(c2c[nH]c3ccccc23)N1O (stereo not given)	6.7
COc1ccccc1OCC(=O)Nn1c(=S)[nH]c2ncccc2c1=O	17.8
Cn1c(=O)c2c(ncn2CC(=O)N/N=C/C=C\c2ccccc2[N+](=O)[O-])n(C)c1=O	21.6
O=C(CSc1n[nH]c(=O)[nH]c1=O)N/N=C/c1ccccc1	14.9
COc1ccc(Nc2nc(-c3cccc([N+](=O)[O-])c3)nc3ccccc23)c(OC)c1	11.5
CC(C)NS(=O)(=O)c1ccc(CCC(=O)NCc2ccc3c(c2)OCO3)cc1	8.1
O=C(NCCNc1ccc([N+](=O)[O-])cc1C(F)(F)F)c1cccc(F)c1	14.0
O=C(NCCO)/C(=C\c1ccco1)NC(=O)c1cccs1	11.5
COc1ccc(S(=O)(=O)N2CCOC2CNC(=O)C(=O)NCCc2ccc(OC)c(OC)c2)cc1 (stereo not given)	8.4
Cc1c(Cc2ccccc2)sc(NC(=O)C(C)(C)C)c1C(N)=O	6.7
CCOc1ccccc1N1CCN(Cc2c(C)n(C)n(-c3ccccc3)c2=O)CC1	9.7
CCOc1cccc(/C=C2/NC(=O)N(CC(=O)Nc3cccc(C)c3)C2=O)c1O	12.8
Cc1ccc(C(=O)O)cc1N1C(=O)CCCC1=O	29.3
FC(F)(F)c1ccc(CN2C[C@@H]3C(c4ccc(C(F)(F)F)cc4)C4(c5cccnc5)CC3(C4)[C@H]2c2ccccc2)cc1 (stereo not given in full)	15.3
C/[N+]([O-])=C/c1c(OCc2ccc(Cl)cc2Cl)ccc2ccccc12	12.3
Cc1ccccc1C(O)c1cccnc1 (stereo not given)	5.0
CC(=O)c1cccc(OCC(=O)N(C)CC(=O)Nc2ccc(F)cc2)c1	17.0
CCn1c(COc2cccc3cccnc23)nnc1SCC(=O)OC	11.4
O=C(O)/C=C/c1cn(Cc2ccccc2)nc1-c1ccc(Cl)cc1	7.2
O=C(CSc1nnc(-c2ccncc2)o1)NCc1ccccc1	7.1
COc1cccc2c1C(=O)c1c(O)c3c(c(O)c1C2=O)C[C@@](O)(C(=O)CO)C[C@@H]3O[C@H]1C[C@H](N)[C@H](O)[C@H](C)O1	16.8
O=C(O)CN(Cc1ccccc1)S(=O)(=O)c1ccc2c(c1)OCCO2	7.0
CN(NC(=O)COc1ccccc1)C1=NS(=O)(=O)c2ccccc21	4.7
FC(F)Oc1ccc(/C=N/NC(=S)Nc2cc(C(F)(F)F)ccc2Cl)cc1	17.7
CCn1c(SCC(=O)Nc2ccccc2OC)nc(O)cc1=O	19.2
CCOC(=O)c1ccc2c(c1)nc(-c1ccc(F)cc1)c1nccn12	17.7
O=C(NNc1ncnc2c1cnn2-c1ccc(F)cc1)c1cccs1	11.2
COC(=O)C1=C(C)N(CC2CC2)C(=O)N[C@H]1c1ccc(Br)cc1	9.1
O=C(O)CCC(=O)Nc1nc2nccc(-c3ccccc3)n2n1	22.8
Cn1c(/C(C#N)=C(\O)c2ccc([N+](=O)[O-])cc2)nc2ccccc21	16.9
O=C1SCC(c2ccc(Cl)cc2Cl)=NN1Cc1nnc(-c2ccccc2)o1	10.5
CCc1ccc(C(=O)Nc2ccc(OC)c(S(=O)(=O)N3CCOCC3)c2)cc1	8.9
Cc1[nH]n(-c2ccccc2)c(=O)c1N=Nc1cccc(S(=O)(=O)N2CCOCC2)c1	11.4
